Screens as filed in PubChem.
Rango-impB inh: Rango-importin beta binding inhibition | Q14974 | Rango CFP/YFP FRET sensor + importin beta, 45 min | Potency, µM (doses to about 92.2 µM), inactives show at the highest dose inhibition of complex formation | 340,000 compounds, 0.031% hits | AID 540263; active = rising FRET ratio curve, often small or poorly fitted; inconclusive = mostly compound fluorescence or quenching in the first reads; inactive = flat curves in all reads;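 further: potency means the concentration at half of the fitted maximal effect; 0% = DMSO wells and 100% = buffer wells lacking importin beta; nearly all actives have a fitted effect of over 15% in size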
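Inhibition scored from the CFP 486 nm/YFP 530 nm FRET ratio 45 min after adding 0.125 microM importin beta to 50 nM Rango biosensor preincubated 5 min with compound (room temperature, PBS with DTT, Tween-20, BSA). No-importin wells as positive control.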
GLA inh pH 4.5: inhibitors of human alpha-galactosidase A at pH 4.5; purified enzyme, 4-MU-alpha-Gal fluorescence, pH 4.5; activity change, negative = inhibition, % at 105 µM; P06280; 230,000 tested, under 10 active; inconclusive = small, poorly fitted or top-dose-only inhibition, or a rising curve; inactive = flat fitted curve, though single readings scatter; no compound was filed as active;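 further: 0% = full activity with enzyme and -100% = basal without enzyme; dose as in the result columns while the protocol names 77 µM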
Target sequence (P06280 whole entry, looked up): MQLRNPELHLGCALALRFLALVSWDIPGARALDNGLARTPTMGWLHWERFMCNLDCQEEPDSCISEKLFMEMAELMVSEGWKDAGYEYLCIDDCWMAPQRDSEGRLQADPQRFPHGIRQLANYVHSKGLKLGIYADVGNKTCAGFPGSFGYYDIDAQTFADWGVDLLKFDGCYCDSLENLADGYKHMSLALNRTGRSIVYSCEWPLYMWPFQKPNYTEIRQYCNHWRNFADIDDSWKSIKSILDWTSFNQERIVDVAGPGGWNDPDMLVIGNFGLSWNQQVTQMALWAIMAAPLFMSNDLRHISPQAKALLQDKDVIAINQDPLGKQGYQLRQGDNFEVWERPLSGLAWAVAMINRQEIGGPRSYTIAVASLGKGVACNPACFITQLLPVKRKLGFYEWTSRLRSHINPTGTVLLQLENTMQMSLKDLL
miR-21 reporter: raises the signal of a miR-21 reporter. HeLa miR-21 FLuc reporter, luciferase, 48 h. Potency, µM (highest dose often 38.3 µM), without a hit: at the highest dose reporter change, positive = more light. 340,000 tested, under 10 active. AID 2288; active = well fitted rising curve with a large enough effect; inconclusive = small, poorly fitted or top-dose-only effect; inactive = no such curve, though single readings can be large or run the other way;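 further: % of control where 0% means no effect; miR-21 action dims this reporter so a rising signal means less miR-21 action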
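Using DMEM plus 10% FBS, HeLa miR-21-FLuc cells are incubated with test compounds (final up to about 40uM) for 48 hours; firefly luciferase signal is then imaged following reagent-mediated lysis.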
Rango release inh: inhibition of RanGTP-driven Rango-importin beta dissociation; Biochemical FRET Rango-importin beta, RanGTP-induced dissociation; O95149+P62826; Potency, µM (titrated, usually from 46.1 µM), inactives show at the top dose activity change, negative = inhibition; 340,000 compounds, 0.071% hits; active means falling FRET ratio curve, often poorly fitted, with flat reads before Ran was added; inconclusive means other falling curves, or compound fluorescence or quenching; inactive means flat or rising ratio curve;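 further: potency means the concentration at half of the fitted maximal effect; % of control where 0% means no effect; nearly all actives have a fitted effect of over 45% in size; -100% = wells without RanGTP and RCC1; the record marks most hits as doubtful in a second field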
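Compounds sat 5 min at room temperature with 0.1 uM Rango biosensor plus 0.25 uM importin beta, then FRET pre-read. RanGTP-RCC1 (0.6 uM Ran, 2mM GTP, 0.2 uM RCC1) added for 45 min, and the CFP/YFP post-read measured blocked complex dissociation.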
The depositor's hits bear a star; ? = inconclusive; nt = no result given; & = joins results of further samples. This is a subset; count on the stated rates, not on these rows.

SMILES | Rango-impB inh | GLA inh pH 4.5 | miR-21 reporter | Rango release inh
CCC(C)C(NC(N)=O)C(=O)Nc1ccc(C)c(Cl)c1 (configuration not stated) | -4.9% | 0 | 1% | -13%
CCOc1ccc(-c2nc(CSCC(=O)N3CCN(c4cccc(OC)c4)CC3)c(C)o2)cc1 | -1.2% | -7 | ? | 16%
COc1ccccc1N1CCN(C(=O)c2ccc3c(=O)n(Cc4ccco4)c(=S)[nH]c3c2)CC1 | -0.5% | -5 | 11% | 2%
C=CCNC(=O)c1ccc2nccnc2c1 | -4.6% | 6 | -6% | 9%
CN(C)C(=O)CCc1ccc2c3c([nH]c2c1)[C@]1(C)[C@@H](C(=O)N2CCOCC2)C[C@H](CC(=O)NCCCn2ccnc2)C(=O)N1CC3 | 0.3% | nt | nt | -8%
O=[N+]([O-])c1cc([N+](=O)[O-])c(Oc2ccccc2F)cc1NN1CCCCC1 | -0.7% | nt | 0% | 17%
CC(=O)N1CCCC(N2CCN(c3cccc(C(F)(F)F)c3)CC2)C1 (configuration not stated) | -0.9% | nt | -9% | -5%
N#CC(C#N)=Cc1c[nH]c(=O)c(C#N)c1Nc1ccccc1 | ? | nt | nt | ?
CCOC(=O)c1nnn(-c2nc(OC)nc(N(C)C)n2)c1-c1ccccc1 | -1.0% | 7 | -11% | -15%
CCCCOC(=O)c1ccc(NC(=S)NC(=O)c2c(Cl)cnn2CC)cc1 | ? | -4 | -6% | -7%
Cc1cc(C)cc(OCC(=O)Nc2ccc(F)cc2)c1 | -1.6% | -1 | -13% | -7%
N/C(=N\OC(=O)CCCc1ccccc1)c1ccccc1Cl | 2.8% | nt | -39% | 6%
Nn1c(-c2cccc(Br)c2)n[nH]c1=S | 0.7% | 3 | -3% | -7%
CCN(C(=O)COc1ccccc1)c1nnc(-c2cccnc2)s1 | -2.8% | -5 | -12% | -4%
CCn1c(=O)cc(SCC(=O)NCCCN2CCC(C)CC2)c2ccccc21 | -2.1% | 5 | 1% | -16%
CC(C)CC(OC(=O)c1cccs1)C(=O)NCc1ccco1 (configuration not stated) | ? | 8 | -12% | 13%
CC(C)CN(CCCNC(=O)CN1N=C(c2ccc(Cl)cc2)CCC1=O)CC(C)C | -1.2% | nt | 0%&1% | 17%
NNC(=O)C=C1CCN(c2ncc(C(F)(F)F)cc2Cl)CC1 | -5.8% | -1 | -17% | 17%
C=CCSc1n[nH]c(-c2ccc(OC)cc2)n1 | -1.8% | 4 | -53% | -7%
CCNC(=O)NC(=O)C(C)OC(=O)C1CCN(S(=O)(=O)c2ccccc2F)CC1 (configuration not stated) | 1.8% | 8 | 1% | -1%
Cc1cccc(CC(=O)NC2CCN(C)CC2)c1 | -1.6% | nt | 0% | 3%
Cc1cc(SCc2ccc(Cl)c(Cl)c2)nc(=O)[nH]1 | 3.4% | nt | -31% | 21%
CC(C)Cn1c(SCC(=O)N2CCN(C(=O)c3ccco3)CC2)nc2ccccc2c1=O | -1.2% | 6 | 0% | 5%
COC(=O)C(C)Sc1nc2c(c(=O)n(C)c(=O)n2C)n1CCC(C)C (configuration not stated) | 2.6% | -2 | -2% | 16%
C=C1c2ccccc2NC(=O)N1c1ccc(OC)cc1 | 1.9% | 7 | -9% | 3%

Further compounds follow:
SMILES | Rango-impB inh | GLA inh pH 4.5 | miR-21 reporter | Rango release inh
CCOc1ccc(N(C)S(=O)(=O)c2cnc[nH]2)cc1 | ? | nt | 1% | 6%
COc1ccc(C(C(=O)NC(C)(C)C)N(C(=O)CCC(=O)Nc2cc(C)on2)c2cccc(C)c2C)cc1 (configuration not stated) | -2.4% | nt | 2% | -14%
C=CCNC(=S)Nc1ccc(N(C)C)cc1 | 6.7% | -7 | 17% | -13%
COc1ccc(-c2nnc(N(C)C(=O)c3cccnc3)s2)cc1 | 2.6% | -3 | -35% | 5%
CC1(NC(=O)/C=C/c2nc3ccccc3s2)CCS(=O)(=O)C1 (configuration not stated) | ? | nt | nt | -9%
O=C(NCCc1ccccc1)c1nnc(CS(=O)(=O)c2ccccc2)o1 | 7.9% | nt | -1% | 18%
Cc1cc(C)c2oc(-c3ccc(C)c(NC(=S)NC(=O)c4cccs4)c3)nc2c1 | 4.2% | 4 | -21% | 29%
Cc1cc(C(=O)N/N=C/c2ccco2)n[nH]1 | 0.7% | 4 | -25% | 6%
O=C(Nc1ccc(Br)cc1)c1cc([N+](=O)[O-])cc([N+](=O)[O-])c1 | -0.3% | nt | 2% | -8%
CCOc1ccc(NC(=O)CSc2nnc(C3CC3)n2N)cc1 | 0.3% | -7 | -4% | -5%
COc1ccc(C2CC(=O)c3c(ccc4ccccc34)N2)cc1OC (configuration not stated) | 4.6% | -1 | 0% | -11%
Cn1c2ccccc2c2ncn(CCC3=CCCCC3)c(=O)c21 | -1.9% | 2 | -53% | 9%
Cc1ccc(C(=O)CSc2nnnn2C(C)C)c(C)c1 | -2.1% | -2 | 22% | 5%
CCCCN1C2=NCCCN2c2ccccc21 | -1.8% | 1 | -5% | 1%
Cc1ccccc1NC(=O)CSC1=NCCN1 | -0.8% | 6 | 0% | -8%
Cc1ccc(N2CC(C(=O)N3CCC(C(=O)Nc4nnc(C(C)C)s4)CC3)CC2=O)cc1 (configuration not stated) | -0.6% | nt | 2% | 0%
CCc1noc(C)c1C(=O)OCC(=O)NCCc1ccc(OC)cc1 | 2.9% | nt | nt | 0%
O=C1CCCN1CN(C(=O)c1ccc2c(c1)OCO2)c1cccc(Cl)c1 | 3.1% | 3 | -3% | -11%
CN(C)CCCn1cnc2c1c(=O)[nH]c(=O)n2Cc1ccccc1 | -5.0% | nt | 2% | 23%
CC1CN(CCOc2ccc(Cl)cc2Cl)CC(C)O1 (configuration not stated) | 7.6% | 8 | -16% | 14%
Cc1ccsc1CN(C)Cc1nc(C2CC2)no1 | 0.1% | -20 | -5% | 11%
COc1ccccc1Nc1nc(-c2sc(NC(=O)c3ccc([N+](=O)[O-])cc3)nc2C)cs1 | nt | -5 | -2% | nt
CC(C)Nc1ccc(C(CC(N)=O)NC(=O)c2ccccc2)cc1[N+](=O)[O-] (configuration not stated) | ? | nt | -25% | -2%
O=C(CSc1nnc(N2CCOCC2)n1-c1cccc(F)c1)N1CCN(c2ccccn2)CC1 | 3.1% | nt | nt | -12%
Cn1c2ccccc2c2nnc(N/N=C/c3ccc(O)cc3)nc21 | 0.1% | nt | nt | 14%

Part of the list above, as labelled records.
> Cn1c2ccccc2c2nnc(N/N=C/c3ccc(O)cc3)nc21
  Rango-impB inh: 0.1%
  GLA inh pH 4.5: nt
  miR-21 reporter: nt
  Rango release inh: 14%
> CC1CN(CCOc2ccc(Cl)cc2Cl)CC(C)O1 (configuration not stated)
  Rango-impB inh: 7.6%
  GLA inh pH 4.5: 8
  miR-21 reporter: -16%
  Rango release inh: 14%
> C=CCNC(=S)Nc1ccc(N(C)C)cc1
  Rango-impB inh: 6.7%
  GLA inh pH 4.5: -7
  miR-21 reporter: 17%
  Rango release inh: -13%
> O=C(Nc1ccc(Br)cc1)c1cc([N+](=O)[O-])cc([N+](=O)[O-])c1
  Rango-impB inh: -0.3%
  GLA inh pH 4.5: nt
  miR-21 reporter: 2%
  Rango release inh: -8%

Other results
SMILES | Rango-impB inh | GLA inh pH 4.5 | miR-21 reporter | Rango release inh
COc1ccc(O[C@H]2C=C[C@@H](c3ccccc3)O[C@@H]2CO/N=C(\C)CCN2CCc3nc(-c4ccccc4)c(-c4ccccc4)cc3C2)cc1 | nt | -4 | -8% | nt
O=C(CSc1ncccc1C(=O)O)c1ccccc1F | -0.5% | 1 | -18% | 3%
COc1cc2cc(CCCOC(=O)c3ccc(C#N)cc3)oc(=O)c2cc1OC | -1.5% | nt | nt | -9%
Cc1nc2ccc(NC(=O)COc3ccccc3F)cc2s1 | 8.1% | -9 | -64% | -5%
O=C(O)Cc1csc(NC(=O)CSc2nnnn2-c2ccc(O)cc2)n1 | 0.1% | 7 | -3% | 0%
CC1N(O)C(C)(C)C(c2ccccc2)=[N+]1[O-] (configuration not stated) | 3.4% | -2 | -3% | -16%
Cc1c(C(=O)N2CCC(C(N)=O)CC2)sc(N)c1C#N | -0.3% | 1 | 0% | -1%
NC(=O)c1c(NC(=O)CN2CCN(S(=O)(=O)c3ccccc3)CC2)sc2c1CCC2 | -0.3% | nt | nt | -13%
CC(=O)N(c1nc(CCl)cs1)c1ccc(C)cc1C | -0.7% | 5 | 4% | 1%
Cc1c(C)c2ccc(OS(C)(=O)=O)cc2oc1=O | 1.3% | -4 | -21% | -2%
CC(NC(=O)Cc1ccccc1)c1cc2c(cc1Br)OCCCO2 (configuration not stated) | -3.1% | -5 | -3% | 25%
CN(CC(=O)Nc1cccc(F)c1)CC(=O)Nc1cccc(S(=O)(=O)N(C)c2ccccc2)c1 | -0.3% | nt | nt | -2%
O=[N+]([O-])c1cccc(CN(CCO)Cc2ccccc2)c1 | 9.1% | -5 | -9% | 1%
O=S(=O)(N(Cc1ccccc1)[C@H](CO)Cc1ccccc1)N(Cc1ccccc1)[C@H](CO)Cc1ccccc1 | -0.2% | nt | nt | 8%
CCN(CC(=O)Nc1ccccc1OC)C(=O)c1ccc(NC(=O)c2cccs2)cc1 | -5.1% | nt | nt | 1%
C[C@H](CO)N1C[C@H](C)[C@@H](CN(C)C(=O)Nc2ccccc2)Oc2ccc(NC(=O)Cn3cnnn3)cc2C1=O | 5.8% | nt | nt | -6%
COc1ccc(CCNC(=O)CCCOc2ccc(C)cc2)cc1OC | 5.4% | -17 | -4% | -9%
c1cnc(N2CCN(Cc3ccc4c(c3)OCO4)CC2)cn1 | -1.9% | -26 | -4% | 3%
O=C(O)Cc1ccc(O)cc1 | -2.8% | nt | nt | -13%
CCOc1cc(CN2CCCCCC2)ccc1OC | -0.1% | nt | 3% | 3%
O=C1CCCC(O)=C1N=Nc1ccc2ncsc2c1 | 1.2% | 10 | -46% | -2%
Cc1ccccc1NC(=S)NCCc1c[nH]c2ccccc12 | 0.0% | -10 | -1% | 0%
CCCC(=O)NC(c1ccco1)c1cc([N+](=O)[O-])c2cccnc2c1O (configuration not stated) | 4.6% | -8 | 12% | 13%
NC(=O)c1nccc2ccccc12 | -0.3% | nt | nt | 14%
COc1cc(/C=C/C(=O)c2ccc3c(c2)OCCO3)cc(OC)c1OC | ? | nt | ? | 9%

(further entries)
SMILES | Rango-impB inh | GLA inh pH 4.5 | miR-21 reporter | Rango release inh
CCC1CCCCN1CCCNC(=O)c1cc2c(=O)oc3ccc(C)cc3c2s1 (configuration not stated) | ? | nt | -2% | 1%
O=C(Cc1ccc(Cl)cc1)Nc1nc2ccccc2[nH]1 | 5.2% | -5 | -20% | -11%
O=S(=O)(c1ccc(F)cc1)n1ccc(-c2cnc(-c3ccccc3)s2)n1 | 0.6% | -9 | -58% | 0%
COc1ccc(S(=O)(=O)N2CCCN(Cc3cccc(F)c3)CC2)cc1 | -6.4% | -19 | -4% | 5%
CC(NC(=O)OC1CCCCC1)N1C(=O)C2C3C=CC(C3)C2C1=O (configuration not stated) | -4.0% | 9 | 1% | 0%
Cc1cc(C)n(C2CCCCC2OC(=O)CCc2ccccc2)n1 (configuration not stated) | 6.0% | 4 | 8% | 22%
CCOC(=O)C1CCCN(C(=O)COC(=O)C2=COCCO2)C1 (configuration not stated) | 1.4% | 8 | 0% | 10%
CN(C)S(=O)(=O)c1ccc(C(=O)Nc2ccnn2C2CCCCC2)cc1 | -2.8% | 3 | 11% | -5%
CN(C(=O)c1ccc2c(c1)S(=O)(=O)N=C1CCCCCN12)c1ccccc1 | 3.2% | nt | nt | -3%

5 entries from above, with values ahead of the structure:
| Rango-impB inh | GLA inh pH 4.5 | miR-21 reporter | Rango release inh | structure |
| --- | --- | --- | --- | --- |
| ? | nt | -2% | 1% | CCC1CCCCN1CCCNC(=O)c1cc2c(=O)oc3ccc(C)cc3c2s1 (configuration not stated) |
| 5.2% | -5 | -20% | -11% | O=C(Cc1ccc(Cl)cc1)Nc1nc2ccccc2[nH]1 |
| 0.6% | -9 | -58% | 0% | O=S(=O)(c1ccc(F)cc1)n1ccc(-c2cnc(-c3ccccc3)s2)n1 |
| -6.4% | -19 | -4% | 5% | COc1ccc(S(=O)(=O)N2CCCN(Cc3cccc(F)c3)CC2)cc1 |
| -4.0% | 9 | 1% | 0% | CC(NC(=O)OC1CCCCC1)N1C(=O)C2C3C=CC(C3)C2C1=O (configuration not stated) |
